CSC inhib – cancer stem cell inhibition; cancer stem cell-like cells viability, luminescence; inhibition, % at 7.5 µM; 300,000 compounds, 1.1% hits; AID 2717;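 active = mean at 75% or more and at least half the replicates too; inconclusive = mean and replicates disagree; tested in HMLE shEcad cells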;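 note: 0% = median of negative and 100% = median of positive control wells; the first replicate is given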
PABP FP inh – PABP-poly(A) binding inhibition | PABP-poly(A) RNA binding, fluorescence polarization | AID 2014 | P11940 | inhibition, % at 35 µM | 290,000 compounds, 1% hits;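 active = 50% or more with normal probe brightness, or confirmed in later tests; inconclusive = above 50% with abnormal brightness, or retests that disagree; inactive = below 50% or failed in later tests; about a fifth of its hits are not listed in these tables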;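 note: calls also rest on retests at 20 µM and on dose response follow-up; controls were probe without protein and protein plus probe with vehicle; some compounds called inactive have numbers as strong as hits; many hits fall short of the cut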
Target sequence (P11940 whole entry, looked up): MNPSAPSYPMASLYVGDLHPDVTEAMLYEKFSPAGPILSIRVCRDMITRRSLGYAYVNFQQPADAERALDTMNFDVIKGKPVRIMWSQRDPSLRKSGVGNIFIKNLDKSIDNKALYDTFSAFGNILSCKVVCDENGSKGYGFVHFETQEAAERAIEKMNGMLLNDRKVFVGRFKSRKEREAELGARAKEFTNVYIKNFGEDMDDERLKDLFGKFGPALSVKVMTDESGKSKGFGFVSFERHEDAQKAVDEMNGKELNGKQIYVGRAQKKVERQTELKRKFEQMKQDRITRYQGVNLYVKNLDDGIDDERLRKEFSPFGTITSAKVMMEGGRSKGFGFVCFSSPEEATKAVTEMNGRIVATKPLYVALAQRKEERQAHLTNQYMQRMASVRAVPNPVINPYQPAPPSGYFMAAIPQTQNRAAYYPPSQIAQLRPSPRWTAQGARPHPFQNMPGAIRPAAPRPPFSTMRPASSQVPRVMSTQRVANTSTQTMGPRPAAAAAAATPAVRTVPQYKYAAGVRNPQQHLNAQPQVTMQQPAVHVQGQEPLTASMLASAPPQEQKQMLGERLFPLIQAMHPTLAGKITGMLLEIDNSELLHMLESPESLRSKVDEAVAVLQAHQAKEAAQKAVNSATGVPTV
Yeast UUG start – modulators of start codon recognition fidelity in yeast. activity score, % at 18.7 µM. S. cerevisiae UUG-firefly luciferase reporter, luminescence/redox ratio. 350,000 compounds, 0.13% hits;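 active = replicate mean at a twofold rise or more, about +100% in these data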;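 note: firefly luciferase made from a UUG start codon reports start codon fidelity; reporter light over untreated wells divided by growth signal over untreated wells; some hits fall short of that in this replicate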
Rce1 inh – blocks yeast Ras-converting enzyme | 290,000 compounds, 0.27% hits | calls only | AID 2563 | Q03530 | yeast membranes, quenched prenylated peptide cleavage fluorescence;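 active = fall in fluorescence gain of 50% or more versus controls, with final raw signal at or below 3038400; inconclusive = same 50% fall but final raw signal above 3038400; inactive = fall in fluorescence gain under 50%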;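 note: plate controls were neutral control wells for no effect and wells lacking membranes for full effect; tested at 10 µM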
Target sequence (Q03530 whole entry, looked up): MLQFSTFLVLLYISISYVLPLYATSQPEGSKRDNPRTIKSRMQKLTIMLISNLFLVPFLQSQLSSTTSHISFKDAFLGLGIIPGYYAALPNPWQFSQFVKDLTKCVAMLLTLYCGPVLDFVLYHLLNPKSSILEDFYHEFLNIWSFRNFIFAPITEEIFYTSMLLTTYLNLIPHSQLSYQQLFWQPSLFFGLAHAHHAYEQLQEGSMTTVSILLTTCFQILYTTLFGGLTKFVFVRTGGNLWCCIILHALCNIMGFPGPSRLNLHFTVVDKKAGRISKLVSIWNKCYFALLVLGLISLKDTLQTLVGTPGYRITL
eIF4H inh – inhibitors of RNA binding by human eIF4H; inhibition, % at 35 µM; 290,000 compounds, 0.94% hits; eIF4H fluorescence polarization binding assay;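 active = 50% or more with normal probe brightness, or confirmed in later tests; inconclusive = above 50% with abnormal brightness, or retests that disagree; inactive = below 50% or failed in later tests; about a fifth of its hits are not listed in these tables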;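 note: calls also rest on retests at 20 µM and on dose response follow-up; 0% = protein and probe with vehicle and 100% = probe without protein; strong numbers were not always called active; many hits fall short of the cut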
HIV Env fusion – HIV envelope-mediated fusion inhibition; HeLa-JRFL Env/CEM21 cell fusion, luciferase; inhibition, % at 12.3 µM; 360,000 compounds, 1.1% hits; AID 651610;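 active = mean replicate inhibition score of at least 50 and every replicate individually at or above 50; inconclusive = only one of the two criteria met; inactive = mean below 50 and not all replicates reaching 50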;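 note: 0% = plate neutral controls and 100% = maraviroc near 300 nM; one replicate is shown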
MT1-MMP act inh – MT1-MMP (human) activation inhibition; HT1080 RFP-PRO-GFP cells, GFP/RFP ratio fluorescence, overnight; percent of plate control window, DMSO zero; GFP/RFP ratio change, % at 20 µM; 360,000 compounds, 0.061% hits;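 active = GFP/RFP ratio change of at least 30% with cell ATP level not reduced by more than half and red fluorescence within 50% of control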; note: strong numbers were not always called active
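system = RFP-PRO-GFP reporter HT1080 cells | dosing = 20 µM single dose, 1% DMSO | timing = overnight cell settling, then overnight compound exposure, 37 °C, 5% CO2 | read-out basis = GFP/RFP fluorescence ratio | controls = DMSO and RFP-L50D-GFP cell wells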
eIF4H inh retest – second read-out of eIF4H inh, no call of its own (marks repeat the call); inhibition, %; compound at 20 µM; confirmation average;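 mean of two retest wells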
PABP FP inh retest – second read-out of PABP FP inh, no call of its own (marks repeat the call); inhibition, %; compound at 20 µM; confirmation repeats;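 mean of two retest wells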
MT1-MMP act inh RFP – also measured in MT1-MMP act inh; calls as there; RFP signal change, %; measured here: RFP expression control read;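 0 = vehicle wells; hits needed this value within 50% of zero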
An asterisk follows results filed as active; i = inactive; u = inconclusive; x = no result given; & = joins results of further samples; [ ] = dose if it differs, or a comment.

SMILES | CSC inhib | PABP FP inh | Yeast UUG start | Rce1 inh | eIF4H inh | HIV Env fusion | MT1-MMP act inh | MT1-MMP act inh RFP | others
CN(C)C(=O)c1ccc(NC(=O)COC(=O)c2cc(S(=O)(=O)N(C)C)ccc2N2CCCC2)cc1 | -7 | x | -10 | i | x | x | 0 | -1
COC(=O)CCC(=O)OC1(C)C(=O)C2=CN(Cc3ccccc3)C(c3ccc(OC)cc3)=CC2=C(Br)C1=O (configuration not stated) | -2 | x | -14 | i | x | -15 | 18 | 18
COc1ccc2nc(C)c3cc(C)oc3c2c1 | -8 | 7 | -17 | x | 1 | x | -7 | 1
CCn1cc(C(=O)O)c(=O)c2cc(S(=O)(=O)N(C)C)ccc21 | 0 | -2 | -10 | i | -3 | -41 | -4 | -4
CCS(=O)(=O)N1CCC(C(=O)NCCC2=CCCCC2)CC1 | -3 | -6 | 0 | i | -4 | x | 5 | -1
O=C(COC(=O)c1ccc2ccccc2c1O)NCC(F)(F)F | -2 | -1 | -7 | i | -2 | 9 | 12 | 7
O=C(CSc1nc(-c2ccc(F)cc2)cc(C(F)(F)F)n1)NCc1cccs1 | -3 | -2 | 10 | i | -2 | 6 | 1 | 2
Cc1ccc(SCCCCN2C(=O)NC(C)(C)C2=O)cc1 | -11 | 14 | -18 | i | 11 | 1 | 4 | 0
COc1ccc(C(=O)NC(=S)Nc2ccc(N3CCCC3)cc2)cc1 | 4 | -2 | x | i | -11 | 14 | -2 | -7
O=C(C1CCN(c2ncnc3c2sc2cccc(F)c23)CC1)N1CCOCC1 | 2 | -3 | 6 | i | 1 | -3 | 1 | -8
CCC(C)(C(=O)NC1CCCC1)N(C(=O)CNC(C)=O)c1ccccc1 (configuration not stated) | -9 | 0 | 10 | i | 0 | x | 0 | 6
CCCn1c(/C=C/c2cc[n+](C)cc2)nc2ccccc21 | -5 | 88* | -11 | i | 38 | -2 | -9 | -5 | eIF4H inh retest=7;PABP FP inh retest=73*
CC(=O)N1CC=CC1(CC(C)C)C(=O)NCCc1c[nH]c2ccccc12 (configuration not stated) | -14 | 1 | -17 | i | -1 | -20 | -6 | 1
Cn1c2ccccc2c(=O)c2c(=O)n(-c3ccc(F)cc3)c(-c3cccs3)nc21 | -12 | 6 | x | i | -9 | -61 | 3 | -8
COc1cc(C=O)ccc1Oc1nnnn1-c1ccccc1 | 4 | -12 | x | i | -6 | 12 | 0 | -3
CC(=O)Nc1ccc(/C=C(\C#N)C(=O)NC2CCCCC2)cc1 | 11 | -2 | x | i | -3 | 4 | -5 | -3
CC(NC(=O)COC(=O)CCc1nc(=O)c2ccccc2n1C)c1ccccc1 (configuration not stated) | -5 | 55 | x | i | -8 | 9 | 1 | 5 | eIF4H inh retest=4;PABP FP inh retest=18
Nc1ncnc(N(c2ccccc2)C2CCCCC2)c1[N+](=O)[O-] | -10 | -7 | -7 | i | -10 | x | 2 | -3
Cn1c(CCNC(=O)C2CCCCC2)nc2cc([N+](=O)[O-])ccc21 | -5 | 4 | x | i | -14 | 18 | -4 | -2
COc1ccc(Nc2sc(C(=O)c3ccc(Cl)cc3)c(N)c2C(=O)Nc2ccccc2OC)cc1 | 2 | 1 | -15 | i | -7 | 37 | 8 | -14
CCN(CC)c1ccc(NC(=O)c2cnccn2)cc1S(=O)(=O)Nc1ccc(OC)cc1 | -5 | -2 | -7 | i | 2 | 16 | -1 | -10
COc1ccc([N+](=O)[O-])cc1NC(=O)C1CCCNC1=O (configuration not stated) | -6 | -3 | -7 | i | -1 | 5 | -7 | -5
O=C(Nc1nc2ccccc2n1CCN1CCOCC1)c1ccc(Cn2cc([N+](=O)[O-])cn2)o1 | -15 | -12 | -7 | i | -10 | x | 2 | 2
Cc1[nH]n(-c2ccc([N+](=O)[O-])cc2)c(=O)c1C=NCCN1CCN(C(=O)c2ccc(Br)cc2)CC1 | 48 | 3 | 12 | x | 2 | 11 | 5 | 6
CS(=O)(=O)c1ccc(Sc2nc3ccccc3[nH]2)c([N+](=O)[O-])c1 | 6 | -11 | -13 | i | -9 | 24 | -15 | -13
Cc1ccccc1OCCC(=O)Nc1ccc(S(=O)(=O)N(C)C2CCN(C)CC2)cc1 | -2 | x | -37 | i | x | 12 | -2 | 1
COc1ccc(C(=O)c2c3ccccc3[n+]([O-])n2Cc2ccc(C(N)=O)cc2)cc1 | -16 | x | -16 | x | x | u | 1 | 8
O=C(c1ccc(F)cc1)C1CCN(Cc2ccccc2F)CC1 | x | x | -10 | x | x | -17 | -4 | -3
O=C(NCCS(=O)(=O)N1CCN(c2ccccc2F)CC1)c1ccc(F)c(F)c1 | -4 | x | 0 | i | x | -3 | 0 | 0
COCC(=O)NC1CCN(CC(=O)Nc2ccccc2[N+](=O)[O-])CC1 | -10 | -6 | x | i | -13 | -47 | 3 | 8
COc1ccc(C(=O)C2CCCN(C(=O)c3ccc(CSC)o3)C2)cc1F (configuration not stated) | -20 | -2 | -7 | i | -6 | 5 | -3 | -1
COc1cccc(-c2nc(CS(=O)(=O)CC(=O)NCCCc3ccccc3)c(C)o2)c1 | -1 | -12 | -6 | i | -5 | 3 | -1 | -2
Cc1ccc(S(=O)(=O)N2[C@@H](c3ccccc3F)C(C(=O)O)=CC[C@H]2c2cccc(Cl)c2)cc1 | 6 | x | 4 | x | x | 2 | -5 | -2
O=C(Nc1cccc2ccccc12)c1ccc([N+](=O)[O-])s1 | 33 | 18 | x | i | 2 | -10 | -5 | -9
O=C(N/N=C/c1cnc2ccccc2n1)c1cccc(F)c1 | 2 | 2 | -19 | i | 0 | -39 | 2 | 4
O=C(COc1ncnc2sccc12)N1CCN(S(=O)(=O)c2ccc(Cl)cc2)CC1 | -6 | 9 | -2 | i | -1 | x | 2 | 5
CC(=O)Nc1sc(C)c(C)c1C(=O)OC1CCOC1=O (configuration not stated) | -6 | 0 | -12 | i | -5 | x | 2 | 1
COc1ccc(N2CCN(C(=O)CCc3ccc(S(=O)(=O)NC(C)(C)C)cc3)CC2)cc1 | 9 | -9 | 0 | i | -3 | 11 | 0 | -6
O=C(C[C@@H]1CC[C@@H]2[C@H](COC[C@H](O)CN2CCC(F)(F)F)O1)NCc1ccc2c(c1)OCO2 | x | x | -9 | x | x | 5[16.7 µM] | -2 | 3
CCC(=O)N(Cc1cc2cc(OC)ccc2[nH]c1=O)c1ccc(C)cc1 | -11 | 2 | 6 | i | 3 | -122 | 0 | -7
COCCN1C=C(C(=O)OC)C(c2ccc3c(c2)OCO3)C(C(=O)OC)=C1 | -7 | -7 | -9 | i | -2 | x | -3 | -3
COC(=O)c1c(C)[nH]c(C(=O)NCCc2ccc(S(N)(=O)=O)cc2)c1C | 2 | 8 | -11 | i | -1 | -1 | -4 | 0
C[C@H](CO)N1C[C@H](C)[C@@H](CN(C)C(=O)Nc2ccccc2F)Oc2cc(Br)ccc2S1(=O)=O | x | x | 5&-2 | x | x | -30[16.7 µM] | -2 | -2
CCCCn1c(-c2ccc(OC(F)F)cc2)nc2c1c(=O)[nH]c(=O)n2CC(C)C | 6 | -1 | -12 | i | -10 | 15 | 2 | -2
COC(=O)c1ccc(OC(=O)c2ccccn2)cc1 | -2 | -1 | -15 | i | 0 | -111 | -1 | 4
COc1cc(S(=O)(=O)Nc2ccccc2C(=O)N2CCCC2)ccc1NC(C)=O | x | x | -16 | x | x | 21 | 1 | -3
Cc1ccn2c(C(=O)N/N=C\c3ccc4c(c3)OCO4)c(C)nc2c1 | 4 | 5 | -15 | i | -8 | 23 | 1 | 0
O=C(C1=C(O)C(=O)N(CCN2CCOCC2)C1c1ccncc1)c1ccco1 (configuration not stated) | -1 | 0 | -9 | i | -2 | -16 | 4 | 4
CC(=O)Oc1cccc(N2C(=O)c3cccc4c([N+](=O)[O-])ccc(c34)C2=O)c1 | 40 | 14 | -16 | i | 12 | 10 | -108 | 5
COCc1ccc2oc(C(=O)O)cc2c1 | -5 | -3 | -12 | i | -8 | x | x | x
Cc1ccc(NS(=O)(=O)c2cccc3nsnc23)cc1[N+](=O)[O-] | -3 | -9 | -10 | i | 3 | 2 | 0 | -1
Cc1nnsc1Sc1ccccc1C(=O)O | 1 | -4 | x | i | 0 | 4 | -2 | 0
C/C(=N\NC(=O)c1ccc(OC2OCCOC2Oc2ccc(C(=O)N/N=C(\C)c3ccncc3)cc2)cc1)c1ccncc1 (configuration not stated) | -4 | -30 | x | i | -34 | -61 | -15 | -13
CCN1C[C@@H]2[C@@H]3C(=O)N(C)C(=O)[C@@H]3[C@](CC)(C1=O)N2C(=O)c1ccc(C)cc1 | x | x | -12 | x | x | -30 | 2 | 5
COCCN(C(=O)Cc1cccs1)C(C(=O)NCc1ccc(OC)cc1)c1ccc(C)cc1 (configuration not stated) | -11 | 2 | -7 | i | 26 | x | -5 | -1
CC(C)(C)c1ccc(OCCC(=O)Nc2cccc(S(=O)(=O)N3CCOCC3)c2)cc1 | 13 | -2 | 17 | i | -4 | 75* | 0 | -15
C/C=C/c1ccc2c(c1)O[C@H](CN(C)CC1CCOCC1)[C@@H](C)CN([C@H](C)CO)S2(=O)=O | x | x | 2&-4 | x | x | -1&8[16.7 µM] | 5 | 5
CC(C)(C)c1cc(CCC(=O)NNC(=O)c2ccncc2)cc(C(C)(C)C)c1O | x | x | -8 | x | x | -7 | -2 | 2
O=C(NCc1ccccc1Cl)c1cc2ccccc2oc1=O | -11 | 6 | 2 | i | 1 | -2 | 1 | 2
CCOc1ncccc1C(=O)NCCN1C(=O)S/C(=C/c2cccs2)C1=O | 12 | -9 | x | i | 5 | 14 | 0 | -5

A stretch taken from the entries so far:
SMILES | CSC inhib | PABP FP inh | Yeast UUG start | Rce1 inh | eIF4H inh | HIV Env fusion | MT1-MMP act inh | MT1-MMP act inh RFP | others
CC(C)(C)c1cc(CCC(=O)NNC(=O)c2ccncc2)cc(C(C)(C)C)c1O | x | x | -8 | x | x | -7 | -2 | 2
O=C(NCc1ccccc1Cl)c1cc2ccccc2oc1=O | -11 | 6 | 2 | i | 1 | -2 | 1 | 2
CCOc1ncccc1C(=O)NCCN1C(=O)S/C(=C/c2cccs2)C1=O | 12 | -9 | x | i | 5 | 14 | 0 | -5

The listing continues.
SMILES | CSC inhib | PABP FP inh | Yeast UUG start | Rce1 inh | eIF4H inh | HIV Env fusion | MT1-MMP act inh | MT1-MMP act inh RFP | others
O=C1CN(S(=O)(=O)c2ccc(F)cc2)CCN1 | -9 | x | -20 | x | x | -37 | 0 | 6
COCCN(C(=O)COC(=O)C1CC1C)c1c(N)n(Cc2ccccc2)c(=O)[nH]c1=O (configuration not stated) | -10 | x | -2 | i | x | -11 | -1 | -3
NC(=O)c1ccsc1NC(=O)COC(=O)c1ccc(Cl)c(N)c1 | -6 | x | -14 | i | x | 6 | 1 | 0
Cc1cc(C)cc(NC(=O)CSCc2cnn(-c3ccccc3)c2-n2cccc2)c1 | 8 | -5 | 3 | i | -3 | 28 | -1 | 0
COc1ccc(C2=NN(C(=O)C(O)c3ccccc3)C(O)(C(F)(F)F)C2)cc1 (configuration not stated) | -6 | -12 | x | i | -10 | -1 | 0 | 1
CC1=C(C(=O)NCc2ccccc2)C(c2cc(Br)cc(Br)c2OC(C)C)NC(=O)N1 (configuration not stated) | -10 | -8 | -13 | i | 4 | 15 | -1 | -5
